RBBP9 inhibitor: inhibitors of human serine hydrolase RBBP9; 220,000 tested, 0.2% active; inhibition, % at 7.94 µM; O75884; recombinant RBBP9, FP-Rh probe fluorescence polarization;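 active = inhibition above the campaign mean of all tested compounds plus 3 SD, cut at about 14% in these data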;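 also: plate controls were DMSO wells with RBBP9 for no effect and wells lacking RBBP9 protein for full effect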
Target sequence (O75884 whole entry, looked up): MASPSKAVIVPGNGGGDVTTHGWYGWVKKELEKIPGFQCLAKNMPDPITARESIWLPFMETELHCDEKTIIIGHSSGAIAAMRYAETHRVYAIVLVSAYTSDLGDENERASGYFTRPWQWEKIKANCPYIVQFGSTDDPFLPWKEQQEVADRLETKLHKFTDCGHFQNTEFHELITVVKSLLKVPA
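System: RBBP9 protein | Quantity: 2.5 µM RBBP9 dispensing solution, before mixing | Reagent: FP-Rh probe, 375 nM dispensing solution | Timing: Enzyme-compound preincubation 30 min, then probe labeling 45 min, 25 °C | Measured by: Fluorescence polarization | Read-out: % inhibition | Replication: One well per compound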
NPY-Y1 antag: blocks the human neuropeptide Y Y1 receptor. HEK293-CNG Y1 cells, membrane potential fluorescence; NPY at EC95, then isoproterenol. inhibition, % at 3.6 µM. 200,000 tested, 1% active;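 active = inhibition above the campaign mean inhibition of all tested compounds plus 3 SD, cut at about 20% in these data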;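 also: 0% = DMSO wells given NPY plus isoproterenol and 100% = isoproterenol alone without NPY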
Target sequence (P25929 whole entry, looked up): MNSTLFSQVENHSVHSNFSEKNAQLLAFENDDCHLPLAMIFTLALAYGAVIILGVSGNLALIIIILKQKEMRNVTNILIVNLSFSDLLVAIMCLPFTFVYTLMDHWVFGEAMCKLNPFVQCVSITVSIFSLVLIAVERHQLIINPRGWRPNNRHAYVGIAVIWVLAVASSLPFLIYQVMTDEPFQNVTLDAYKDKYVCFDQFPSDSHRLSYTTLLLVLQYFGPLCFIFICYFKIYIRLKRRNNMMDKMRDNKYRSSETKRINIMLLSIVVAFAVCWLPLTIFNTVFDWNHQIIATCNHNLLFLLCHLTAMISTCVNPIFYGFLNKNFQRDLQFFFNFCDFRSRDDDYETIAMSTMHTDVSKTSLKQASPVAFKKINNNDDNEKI
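Assay system: HEK293 cells with Y1 receptor plus CNG channel | Probe or stimulus: NPY (25 nM), isoproterenol (1 µM), Ro 20-1724 (25 µM) | Timing: Compound incubation 1 h at room temperature, readout 45 min post-stimulation | Measured by: Membrane-potential fluorescent dye readout | Benchmarks: High control isoproterenol alone, low control NPY with isoproterenol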
NPY-Y2 PAM-ag: potentiates or activates human NPY-Y2 receptor; activation, % at 3.6 µM; AID 1359; 220,000 tested, 0.45% active; cells expressing NPY-Y2, potentiator/agonist read-out; in the data active = activation above about 27%;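 also: cells stimulated with NPY near EC25 plus isoproterenol at EC100; 0% = vehicle plus submaximal agonist and 100% = vehicle plus saturating agonist; some results beyond the cut were filed as inactive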
p97 inhibitor: human p97 ATPase inhibition; P55072; 220,000 tested, 0.42% active; recombinant p97 ATPase, Kinase-Glo ATP luminescence, 3 h; inhibition, % at 8 µM; in the data active = inhibition above about 15%;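 also: 0% = DMSO vehicle and 100% = wells lacking enzyme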
NPY1 pot ag: human NPY-Y1 potentiation or agonism, primary screen. P25929. NPY-Y1 expressing cells, potentiator/agonist activation. activation, % at 3.6 µM. 220,000 tested, 0.37% active. AID 1304; in the data active = activation above about 33%, passing the limit was not always enough;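 also: cells stimulated with NPY at EC10 then isoproterenol at EC100; 0% = low agonist plus stimulus and 100% = saturating agonist plus stimulus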
MDM2 E3 inh: blocks human Mdm2 ubiquitin ligase activity; cell-based MDM2 ubiquitination luciferase reporter, 2 h; 0 = plate control, 100 = twice control, blank-subtracted; signal enhancement, % at 5 µM; 210,000 tested, 0.11% active; AID 1230;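 active = signal enhancement of 30% or more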;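 also: luminescence tracks abundance of the self-degrading MDM2-luciferase fusion protein; higher signal means inhibition of MDM2 E3 ligase activity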
Target sequence (Q00987 whole entry, looked up, the tested form may be a part): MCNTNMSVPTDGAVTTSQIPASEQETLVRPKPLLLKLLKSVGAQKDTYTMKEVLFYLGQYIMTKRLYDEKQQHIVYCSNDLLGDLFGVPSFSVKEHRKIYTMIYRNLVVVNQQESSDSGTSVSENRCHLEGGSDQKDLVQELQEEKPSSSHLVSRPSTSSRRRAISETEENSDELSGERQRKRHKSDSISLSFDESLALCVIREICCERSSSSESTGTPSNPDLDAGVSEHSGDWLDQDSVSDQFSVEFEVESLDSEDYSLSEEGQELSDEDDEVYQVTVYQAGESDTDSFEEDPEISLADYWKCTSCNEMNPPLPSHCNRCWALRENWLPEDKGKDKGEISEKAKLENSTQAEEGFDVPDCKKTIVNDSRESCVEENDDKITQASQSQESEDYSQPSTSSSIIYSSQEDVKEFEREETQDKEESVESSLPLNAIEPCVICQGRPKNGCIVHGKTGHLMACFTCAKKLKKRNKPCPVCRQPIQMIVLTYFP
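Assay system: mammalian cells stably expressing self-ubiquitinating, self-degrading MDM2 E3–luciferase fusion. Quantity: 2000 cells in each well. Medium: DMEM culture medium. Compound dosing: single-point 5 µM. Timing: cell settling 4 h, compound treatment 2 h, both 37 °C. Technique: luciferase luminescence. Read-out basis: percent signal gain over controls, blank-subtracted. Benchmarks: plate controls and plate blanks.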
Hck Nef HTS: human Hck-Nef kinase inhibition; Recombinant Hck-YEEI plus Nef, Z-Lyte FRET kinase assay; P08631; 220,000 tested, 0.68% active; inhibition, % at 20 µM;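 active = Hck-Nef kinase inhibition above about 50%, limit read from the data; inactive = inhibition below that limit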;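 also: 0% = DMSO with Hck plus Nef and 100% = Hck alone without Nef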
An asterisk follows results filed as active; . = no result given. Only part of the results is shown (hit frequency here may not be typical).

mol	RBBP9 inhibitor	NPY-Y1 antag	NPY-Y2 PAM-ag	p97 inhibitor	NPY1 pot ag	MDM2 E3 inh	Hck Nef HTS
Cc1oc(C)c(C(=O)NCCCC(=O)O)c1C(=O)NCCCC(=O)O	-8	0	-12	-4	-3	-17	-3
Cc1ccc2occ(/C=C/C(=O)c3ccccc3O)c(=O)c2c1	-9	-2	-2	-5	-4	-1	2
COc1ccc(N2CCc3c(C)nc4c(OC)cc(OC)cc4c32)c(OC)c1	-7	44*	-10	-3	-15	-1	2
COc1ccc(CCNC(=O)CCCCCN2C(=O)c3ccccc3C2=O)cc1	-13	5	-8	-1	6	-15	0
CCOC(=O)c1c(C)[nH]c(C(=O)CSc2nnc(-c3cccs3)n2Cc2ccccc2)c1C	-14	0	-12	0	13	-5	50
CCC(C)C(NS(=O)(=O)c1ccc(C)cc1)C(=O)Oc1ccc2c3c(c(=O)oc2c1)CCC3 (configuration not stated)	-20	0	2	-3	-22	-10	15
Cc1ccc(/C=C2/NC(=O)N(Cc3ccccc3)C2=O)s1	-5	-11	15	1	1	-21	2
O=C(NCc1ccccn1)c1cccc([N+](=O)[O-])c1	-3	0	12	8	-5	-13	3
O=C(NC1CCS(=O)(=O)C1)c1c(NC(=O)C2COc3ccccc3O2)sc2c1CCCC2 (configuration not stated)	-4	5	-18	-1	2	1	7
O=S(=O)(Nc1ccc(-c2nc3cccnc3s2)cc1)c1cc(F)ccc1F	-7	.	-7	3	10	-13	115*
O=C(Oc1c(Br)cc(C(=S)N2CCOCC2)cc1Br)c1ccc(Cl)cc1	-10	-1	13	1	-1	-12	-1
Cc1oc2ccc(NS(=O)(=O)c3ccc(C(C)(C)C)cc3)cc2c1C(=O)Nc1ccccc1	5	-5	6	5	-17	-22	2
COc1ccc(Cc2nc3ccc(S(=O)(=O)N4CCOCC4)cc3[nH]2)cc1OC	-1	1	7	9	19	-5	-1
Cc1ccc2c(c1)SC1=NC(c3ccccc3)(C(F)(F)F)NC(=O)N12 (configuration not stated)	-4	5	-23	3	-10	-26	3
CC(/C=C/c1ccccc1)=N/NC(=O)c1cc([N+](=O)[O-])cc([N+](=O)[O-])c1	0	6	4	1	-4	-3	11
CC(=O)Nc1ccc(S(=O)(=O)N2CCN(C(=O)c3cccnc3)CC2)cc1	0	3	-8	2	1	11	1
CSc1nnc(-c2ccc(Cl)cc2Cl)o1	2	3	9	2	41	10	4
O=C(/C=C/c1ccccc1)N1CCN(Cc2nc3ccccc3c(=O)[nH]2)CC1	-4	3	1	0	-4	3	1
CCOc1ccc(/C=C/C(=O)c2c(O)c3ccccc3oc2=O)cc1	-2	7	-4	4	4	-6	1
CS(=O)(=O)c1ccc(S(=O)CC(=O)OCc2ccccc2)c([N+](=O)[O-])c1 (configuration not stated)	-1	-3	2	10	-8	-28	18
CN(C)S(=O)(=O)c1ccc(NC(=O)N2CCN(c3ccccc3)CC2)cc1	-10	4	5	4	14	-3	2
COc1cc(Nc2nc(-c3ccccc3)c3cc(C)ccc3n2)cc(OC)c1OC	2	-1	-17	-3	-3	-27	0
O=C(Nc1ccc(Cl)cc1)OC(CN1CCCCC1)C(F)(F)F (configuration not stated)	-3	3	-1	-2	10	-9	-2
CCOc1ccc(OCc2ccc(C(=O)N/N=C(\C)c3ccccn3)cc2)cc1	-5	12	-8	3	-12	23	34
CN(C)c1ccc(/C=c2\sc3nc(-c4ccccc4)nn3c2=O)cc1	-3	0	1	5	-6	-10	2

Fetched by compound from the list above (two):
mol	RBBP9 inhibitor	NPY-Y1 antag	NPY-Y2 PAM-ag	p97 inhibitor	NPY1 pot ag	MDM2 E3 inh	Hck Nef HTS
Cc1oc2ccc(NS(=O)(=O)c3ccc(C(C)(C)C)cc3)cc2c1C(=O)Nc1ccccc1	5	-5	6	5	-17	-22	2
CC(/C=C/c1ccccc1)=N/NC(=O)c1cc([N+](=O)[O-])cc([N+](=O)[O-])c1	0	6	4	1	-4	-3	11

Additional entries.
mol	RBBP9 inhibitor	NPY-Y1 antag	NPY-Y2 PAM-ag	p97 inhibitor	NPY1 pot ag	MDM2 E3 inh	Hck Nef HTS
COC(=O)c1cc(CSc2nc3ccc(C)cc3[nH]2)oc1C	-7	2	-12	-7	-9	.	0
O=C(O)/C=C/C(=O)Nc1ccccc1-c1ccccc1	0	-2	10	6	17	-6	-1
COc1ccc(NC(=O)C2(c3ccc(NC(=O)c4ccc(C)cc4)cc3)CCCC2)cc1	-8	5	-6	0	6	5	1
CCCn1c(Sc2nc3c(c(=O)[nH]c(=O)n3C)n2CCC)nc2c1c(=O)[nH]c(=O)n2C	-4	-4	-8	-5	5	-13	0
CCc1ccc(Cn2nnc(C(=O)NCc3ccccc3OC)c2N)cc1	-12	7	-13	1	-3	-4	1
O=C(O)C1C2C=CC(O2)C1C(=O)NC1CCCc2ccccc21 (configuration not stated)	-1	-3	9	8	-14	-17	2
CN(C)c1cc[n+](CC(=O)Nc2cc(C(F)(F)F)ccc2Cl)cc1	-9	-1	7	-2	-1	-14	-1
COCCNC(=O)COC(=O)c1nsc(Cl)c1Cl	-9	1	-6	1	-17	2	0
CC(C)=CCc1c(C)nc2ccccc2c1C(=O)O	3	7	-23	-2	-12	-13	-2
Cc1cc(=O)[nH]c(SCC(=O)Nc2ccc(S(=O)(=O)N3CCOCC3)cc2)n1	-7	14	-6	-5	2	5	0
COc1ccc(NC2=Nc3cccc4cccc2c34)cc1OC	1	4	-7	6	18	-2	-1
CC(C)c1ccc(-c2nn(-c3ccccc3)cc2C2C(C#N)=C(N)OC3=C2C(=O)CC(C)(C)C3)cc1 (configuration not stated)	-11	-2	-11	-2	9	-19	0
CCCCn1nnc(NC(=S)NC(=O)c2ccc(-c3cccc(Cl)c3Cl)o2)n1	0	0	-5	-3	-6	-17	-2
O=C(Nc1nc(-c2ccccc2)c(-c2ccccc2)o1)c1ccc(F)cc1	-10	0	-3	0	0	-11	0
Cc1cc(C(F)(F)F)nc(SCC(=O)c2cccc([N+](=O)[O-])c2)n1	-10	0	5	2	-5	-12	-1
COCCNC(=O)c1cc(-c2ccc(OC)c(OC)c2)on1	4	5	-2	3	2	-7	1
CCCC(O)(CCC)C(=O)NNc1ccccc1	-6	3	-11	-1	8	-16	0
COCCCNC(=O)CCS(=O)(=O)Cc1ccc(C)cc1	-5	6	-1	4	14	-11	2
COc1ccccc1-n1c(CNC(=O)c2ccco2)nnc1SCC(=O)Nc1ccc(F)cc1	3	-2	6	2	-2	-15	0
CCn1c(N)c(C(=O)NCc2cccnc2)sc1=S	0	0	-6	-2	9	-11	0
CC(=O)C(N=Nc1ccccc1)(Sc1nnc(-c2ccccc2)n1-c1ccccc1)C(C)=O	-5	12	-7	3	-1	-6	-1
CCOC(=O)C1=C(c2ccccc2)NC(=S)NC1c1cc([N+](=O)[O-])ccc1OC (configuration not stated)	-7	0	10	10	-8	5	-1
O=C(c1ccc(COc2ccccc2Br)o1)N1CCN(c2ccccn2)CC1	-3	15	-17	3	-7	-4	1
COc1c(F)c(F)c(C(=O)O)c(Nc2ccccc2C)c1F	-2	8	7	5	-2	1	1
CCCS(=O)(=O)N1CCCC(C(=O)NCCN(Cc2ccccc2)C(C)C)C1 (configuration not stated)	-2	8	-3	-4	-9	-15	1
CCOC(=O)c1c(C)oc2ccc(O)cc12	0	1	-11	8	-14	-12	0
CCCn1nnc(NC(=O)c2cccc(Cl)c2)n1	5	51*	-9	1	10	-7	-1
COC(=O)c1ccc2c(c1)C(C)(C)C(/C=C/c1ccc(OC)c(OC)c1OC)=[N+]2C	-144	15	-32	-3	-29	-34	3
O=C(N/N=C/c1ccc(O)c(O)c1)c1ccc(CSc2cccc3cccnc23)cc1	-12	2	-17	3	-5	-1	-12
CCOC(=O)c1sc(C)c2c(=O)n(Cc3ccc(Cl)cc3)c(C)nc12	-6	6	2	-7	-10	-37	1
CC(C)COC(=O)Nc1nnc(SCCOc2ccccc2)s1	5	29*	-23	-2	-49	-11	1
CCOC(=O)N1CCC(n2c(SCC(=O)c3ccccc3)nc3ccsc3c2=O)CC1	-8	5	16	-2	12	-7	5
Cc1c(Br)c([N+](=O)[O-])nn1C(C)C(=O)Nc1ccc2c(c1)OCO2 (configuration not stated)	0	-3	7	2	5	-2	0
CCOC(=O)Cc1csc(N/N=C/c2ccc(C(F)(F)F)cc2)n1	-2	4	-2	-3	25	-8	1
CCOC(=O)CN1C(=O)C(Sc2n[nH]c(-c3ccc(C)cc3)n2)CCc2ccccc21 (configuration not stated)	-7	-4	6	-1	30	-15	-2
Cc1[nH]nc(-c2ccc(OCc3cnn(-c4ccccc4)c3)cc2O)c1Oc1ccc(F)cc1	-8	3	-7	-7	7	-7	-1
Cc1ccccc1OCCCC(=O)NCc1ccco1	-4	9	-3	-2	4	1	0
Brc1ccc(CSc2nccn2-c2ccccc2)cc1	-3	4	-8	-2	18	-18	1
CCOc1ccccc1NC(=O)Nc1c(C)n(-c2ccccc2)c(=O)n1C	-9	-5	-6	2	-15	2	0
Cc1cc(OCC(F)(F)C(F)(F)C(F)(F)C(F)F)nc(N)n1	-7	2	-2	-5	-22	4	0
Cc1cc(C)c(S(=O)(=O)NCC2CCC(C(=O)NCc3ccc4c(c3)OCO4)CC2)c(C)c1 (configuration not stated)	-5	-8	-19	-2	13	0	-1
Clc1ccc(OCc2cnc(Cl)s2)cc1	-10	-2	6	2	-12	-8	1
CCCCn1c(Cl)nc2c1c(=O)n(C)c(=O)n2C	-9	-8	-2	4	-5	-8	2
CCS(=O)(=O)NCC(c1cccnc1)N1CCN(c2ccccc2F)CC1 (configuration not stated)	-4	-1	-14	-1	-4	-5	-2
COc1cc(NS(C)(=O)=O)c(OC)cc1NC(=O)c1cccc(F)c1	-12	2	14	1	10	-14	1
O=C(O)CCN=C1CCCc2ccccc2N1	0	-1	-15	1	15	4	3
COc1ccc(OCCSc2nnnn2C2CCCCC2)cc1	-2	10	-20	-4	-41	-15	1
Cc1cc2ncn(C3CC(=O)N(C)C3=O)c2cc1C (configuration not stated)	-10	0	2	1	12	-3	0
Cc1nc(NS(=O)(=O)c2ccccc2)sc1NC(=O)OC(C)C	-2	3	1	3	-8	-5	1
O=C(N/N=C/c1cccc(Oc2ccc([N+](=O)[O-])cc2[N+](=O)[O-])c1)c1cncc(Br)c1	8	4	-12	5	3	1	1

(listing goes on)
mol	RBBP9 inhibitor	NPY-Y1 antag	NPY-Y2 PAM-ag	p97 inhibitor	NPY1 pot ag	MDM2 E3 inh	Hck Nef HTS
C=CCN1C(=O)C(CC(=O)Nc2ccccc2)SC1=Nc1ccc(S(N)(=O)=O)cc1 (configuration not stated)	-6	1	1	0	1	-11	-2
CC1(C)CC(CC(=O)NC(=S)Nc2ccc([N+](=O)[O-])cc2)C(=O)O1 (configuration not stated)	-9	4	-25	-3	32	-22	-1
CCCCCCCCCCn1cc(C(C)=O)c(=O)[nH]c1=O	-5	4	-19	1	12	-53	1
O=C(CSCc1cccc(Cl)c1)NCc1ccc2c(c1)OCO2	-5	11	-21	-5	-21	-19	-1
Cc1ccc(C(=O)n2cnnc2N)cc1	-1	6	12	1	10	0	0
CCCC(=O)N(c1ccc(F)cc1)C1C=CS(=O)(=O)C1 (configuration not stated)	-4	1	1	3	1	-9	1
